N370S GC mod: N370S glucocerebrosidase modulation, Gaucher chaperone candidate; 0.092% of 330,000 active; N370S GC spleen homogenate, 4MU-glucoside fluorescence; Potency, µM (series often up to 59.4 µM), without a hit: at the top dose activity change, negative = inhibition, usual class: inhibitors; active = well fitted inhibition curve with a large enough effect; inconclusive = small, poorly fitted or top-dose-only effect, or effect the other way, or another doubt; inactive = no such curve, though single readings can be large or run the other way;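 also: 0% = full enzyme activity and -100% = no enzyme basal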
Starred values were filed as active, the others as inactive; ? = inconclusive; & = joins results of further samples. Potency is read from the fitted curve at half-maximal effect. Not all compounds are listed; most or all hits stand in other tables.

CCOC(=O)N1CCN(C(=S)Nc2ccccc2C)CC1
  N370S GC mod = 4%
Cc1ccc(C(=O)O[C@H](C(=O)O)[C@H](OC(=O)c2ccc(C)cc2)C(=O)O)cc1
  N370S GC mod = -1%
COc1ccc(/C=C2\SC(c3ccc(C)cc3)=NC2=O)cc1OC
  N370S GC mod = 0%
Cc1cccc(N2CCN(C(=O)CCS(=O)(=O)c3ccc4c(c3)oc(=O)n4C)CC2)c1C
  N370S GC mod = -8%
COC(=O)c1[nH]c2cc(OC)ccc2c1NC(=O)CN1CCC(C(N)=O)(N2CCCCC2)CC1
  N370S GC mod = 7%
CC(NC(=O)CSc1nnc(-c2cccc(S(=O)(=O)N3CCCCC3)c2)o1)C12CC3CC(CC(C3)C1)C2 (stereo not drawn)
  N370S GC mod = 2%
COc1cc(OC)c2c(-c3ccccc3)cc(=O)oc2c1C(CC(=O)N1CCCC1)c1ccc2c(c1)OCO2 (stereo not drawn)
  N370S GC mod = ?
Cc1[nH]nc(SCC(=O)NCCc2ccccc2)c1[N+](=O)[O-]
  N370S GC mod = -7%
CCN1C(=O)C(NC(C)=O)c2cc(Br)ccc21 (stereo not drawn)
  N370S GC mod = 2%
Cc1ccc(S(=O)(=O)NCCC2(C(C)C)CCOC(C)(C)C2)cc1 (stereo not drawn)
  N370S GC mod = 6%
COc1ccccc1NC(=O)CN1CCN(CC(=O)Nc2cc(C)ccc2OC)CC1
  N370S GC mod = -22%
CN1CCCC(OC(=O)c2cccc(Cl)c2)C1 (stereo not drawn)
  N370S GC mod = 7%
Cc1ccc(S(=O)(=O)NC2c3cccc4cccc(c34)C2Sc2n[nH]c(N)n2)cc1 (stereo not drawn)
  N370S GC mod = -2%
Cc1nc2sc3c(c2c(=O)n1/N=C/c1ccco1)CCCC3
  N370S GC mod = 4%
O=c1ccc(-c2ccc(S(=O)(=O)Nc3cccc([N+](=O)[O-])c3)s2)n[nH]1
  N370S GC mod = -10%
CC(Nc1n[nH]c(=O)[nH]c1=O)C(=O)N/N=C/c1cccs1 (stereo not drawn)
  N370S GC mod = -4%
CC1=CN2C(=N)/C(=C/c3ccc(Sc4ccc(Cl)cc4)o3)C(=O)N=C2S1
  N370S GC mod = 0%
Cc1ccccc1NS(=O)(=O)c1ccc(C(=O)NCC(C)(C)N2CCOCC2)cc1
  N370S GC mod = -2%
COC(=O)c1c(C(=O)OC)c(-c2ccc(Cl)c(Cl)c2)n2c1CCC2
  N370S GC mod = 26%
COC(=O)c1scc(C)c1N/N=C(\C)c1ccc(F)cc1
  N370S GC mod = 2%
Clc1ccc(OCCn2ccnc2)cc1Cl
  N370S GC mod = -17%
CN(C)c1nc(N/N=C/c2c[nH]c3ccccc23)nc(N2CCOCC2)n1
  N370S GC mod = 22%
CN(C)c1nc(N)c2ncc(=S)[nH]c2n1
  N370S GC mod = -7%
Cc1cc(C)c(C)c(S(=O)(=O)NCC(=O)NCC2CCCCC2)c1C
  N370S GC mod = -7%
Cc1cc(C)c(S(=O)(=O)NCc2ccc3c(c2)OCO3)c(C)c1
  N370S GC mod = -2%

Some of the entries above, reformatted.
SMILES	N370S GC mod
Clc1ccc(OCCn2ccnc2)cc1Cl	-17%
CN(C)c1nc(N/N=C/c2c[nH]c3ccccc23)nc(N2CCOCC2)n1	22%
CN(C)c1nc(N)c2ncc(=S)[nH]c2n1	-7%
Cc1cc(C)c(C)c(S(=O)(=O)NCC(=O)NCC2CCCCC2)c1C	-7%
Cc1cc(C)c(S(=O)(=O)NCc2ccc3c(c2)OCO3)c(C)c1	-2%

Following part
CCOc1cc(N2CCOCC2)c(OCC)cc1NC(=O)CN1CCCC1
  N370S GC mod = -1%
CCOC(=O)/C(C#N)=N/Nc1c(S(=O)(=O)Cc2ccco2)csc1C(=O)OC
  N370S GC mod = -5%
O=c1[nH]c2cc3c(cc2cc1CN(Cc1ccco1)C(=S)NCCCN1CCOCC1)OCCO3
  N370S GC mod = -19%
Cc1cc(NC(=O)CCC(=O)N(Cc2cccs2)C(C(=O)NC2CCCC2)c2ccncc2)no1 (stereo not drawn)
  N370S GC mod = -1%
CCSCCc1nnc(NC(=O)Nc2cccc(C(F)(F)F)c2)s1
  N370S GC mod = 20%
CC1CC(C)CN(C(=O)C2CCC(CNS(=O)(=O)c3ccccc3)CC2)C1 (stereo not drawn)
  N370S GC mod = -10%
CCCCCCCCCCCCC/C=C/[C@@H](O)[C@@H](N)CO
  N370S GC mod = ?
CSc1ccc(/C=C(/NC(=O)c2ccccc2)C(=O)N2CCN(C)CC2)cc1
  N370S GC mod = -19%
O=C(CN1CCN(Cc2ccccc2)CC1)c1ccccc1
  N370S GC mod = -1%
COc1ccc(S(=O)(=O)NC(C)C(=O)Nc2ccccc2F)cc1 (stereo not drawn)
  N370S GC mod = -10%
Cc1cc(C)n(CC(O)Cn2c3ccc(Cl)cc3c3cc(Cl)ccc32)c(=O)n1 (stereo not drawn)
  N370S GC mod = -1%
Cc1ccc(C(=O)N2CCN(c3ccc(N4CCOCC4)nn3)CC2)cc1
  N370S GC mod = 24%
Brc1cc2c(cc1Cn1c(-c3cncs3)nc3ccccc31)OCO2
  N370S GC mod = 5%
O=C(N/N=C/c1ccc([N+](=O)[O-])o1)c1cn2ccc3ccccc3c2n1
  N370S GC mod = 1%
CN1[C@@H]2CC[C@H]1CC(OC(=O)C(CO)c1ccccc1)C2 (stereo partly drawn)
  N370S GC mod = -1%&25%&-7%
Cc1cccc(OCCSc2nc3c([nH]2)c(=N)ncn3Cc2ccccc2)c1
  N370S GC mod = -23%
FC(F)(F)c1ccc2c(c1)[nH]c(=S)n2C1CC1
  N370S GC mod = -2%
COc1ccc(NC(=O)CNC(=O)Cn2cnc3sc(C)c(C)c3c2=O)cc1OC
  N370S GC mod = -3%
Cc1ccc(C(=O)N2CCCC(C(=O)c3cc(F)ccc3F)C2)s1 (stereo not drawn)
  N370S GC mod = -1%
CC(=O)N1CCN(c2nc(N)c(C#N)c(CC#N)c2C#N)CC1
  N370S GC mod = 8%
CC(C)CC(=O)N/C(N)=N/c1nc2ccccc2s1
  N370S GC mod = 3%
O=C(O)COc1ccccc1C(Nc1ccccn1)c1cc(Cl)c2cccnc2c1O (stereo not drawn)
  N370S GC mod = 17%
CC1(C)Cc2c(ccc3ccccc23)C2=C(C(=O)N3CCCC3)C(=O)C(=O)N21
  N370S GC mod = -3%
O=c1[nH]nc(N2CCOCC2)c(=O)[nH]1
  N370S GC mod = -7%
NC(=O)N/N=C/c1cn(-c2ccccc2)nc1-c1ccccc1
  N370S GC mod = 5%

O=C(/C=C/NCC(=O)c1ccccc1)c1ccc(Br)cc1
  N370S GC mod = 2%
CN(CC(=O)Nc1cccc(F)c1)C(=O)CSc1ccccc1
  N370S GC mod = 2%
COC(=O)[C@@]12CCCN1[C@H](c1ccc(-c3ccc(C(C)=O)cc3)c(OC)c1)[C@H]1C(=O)N(C)C(=O)[C@H]12
  N370S GC mod = -10%
CN1[C@@H]2CC[C@H]1CC(OC(=O)[C@H](CO)c1ccccc1)C2 (stereo partly drawn)
  N370S GC mod = 0%
CCOc1ccc(CNn2cnnc2)cc1
  N370S GC mod = -10%
O=[N+]([O-])c1ccccc1/C=N/N1CCN(c2ccc(Cl)cc2)CC1
  N370S GC mod = 4%
COc1cc(OC)cc(C(=O)N2CCN(C(=O)Cc3ccccc3)CC2)c1
  N370S GC mod = -2%
O=C(Cc1cn(-c2ccccc2)nc1-c1ccccc1)N1CCCCC1
  N370S GC mod = 16%
Cc1cc(C)n2c(SCCN3C(=O)c4ccccc4C3=O)nnc2n1
  N370S GC mod = 4%
COC(=O)c1ccc(-n2c(C)cc(C(=O)COC(=O)CNS(=O)(=O)c3ccc(C)cc3)c2C)cc1
  N370S GC mod = 17%
O=C(Cn1nc(C(F)(F)F)c2c1CCC2)NC1CCCCC1
  N370S GC mod = 17%
COc1ccc(-n2cnnc2SCc2csc(-c3ccccc3)n2)cc1
  N370S GC mod = 11%
COc1cc(OC)cc(C(=O)NCc2cc(C)nc3ccccc23)c1
  N370S GC mod = -9%
O=C1N[C@@H](Cc2ccccc2)[C@@H](c2ccco2)O1
  N370S GC mod = -1%
CCOc1ccc(C2NC(=O)c3ccccc3O2)cc1OC (stereo not drawn)
  N370S GC mod = -1%
O=C(c1ccccc1CCc1ccccc1)N1CCN(c2ccccn2)CC1
  N370S GC mod = 3%
Cc1c(Cl)cccc1NC(=O)CS(=O)(=O)c1ccccc1
  N370S GC mod = ?
CCn1c(=O)n(CC(=O)Nc2cc(OC)ccc2OC)c(=O)c2ccccc21
  N370S GC mod = -4%
Cc1ccc(CSCc2ccc(C(=O)NC3CC3)o2)cc1
  N370S GC mod = -3%
O=C(CCc1n[nH]c(=O)[nH]c1=O)N/N=C/c1ccco1
  N370S GC mod = -1%
O=c1c2cc(F)ccc2[nH]c(=S)n1Cc1ccc(F)cc1
  N370S GC mod = -3%
O=C(NCC1CCCO1)c1cc(-c2ccccc2)on1 (stereo not drawn)
  N370S GC mod = 5%
Cc1cccc(C)c1NC(=O)CSC(=S)N1CCCC1
  N370S GC mod = 1%
COCCN1C(=O)c2ccccc2C(C(=O)NCCCN2CCCC2)C1c1c[nH]c2ccccc12 (stereo not drawn)
  N370S GC mod = 2%
CCN(CC)c1ccc(C(=O)N/N=C(\C)c2ccc(O)cc2)cc1
  N370S GC mod = 2%

CC(=O)c1ccc(N2CCN(S(=O)(=O)c3ccc4c(c3)NC(=O)CC(=O)N4)CC2)cc1
  N370S GC mod = 3%
CN(C)c1ccc(CNc2ccc3c(c2)ncn3C(C)(C)C)cc1
  N370S GC mod = -4%
Cc1ccc(NC(=O)CCC(=O)OCC(=O)c2ccc(-c3ccccc3)cc2)cc1
  N370S GC mod = 1%
CCn1c(=O)[nH]c2cc(Cl)c(Cl)cc21
  N370S GC mod = -6%&-4%&-21%
COc1ccc(OC)c(C2N(c3ccc(Cl)cc3)C(=O)C3CCCN32)c1 (stereo not drawn)
  N370S GC mod = 8%
CCOc1ccc(CCNC(=O)CCN2C(=O)COc3ccccc32)cc1OCC
  N370S GC mod = 13%
COCCn1ccc2c(OCC(=O)Nc3cc(OC)ccc3OC)cccc2c1=O
  N370S GC mod = -11%
CCCOP(=O)(OCCC)C1(Nc2ccc(C)cc2)CCCCC1
  N370S GC mod = 2%
Cc1cc2oc(=O)cc(CN3CCN(S(=O)(=O)c4ccc5c(c4)OCCO5)CC3)c2cc1C
  N370S GC mod = 11%
Clc1ccc(SCCOCCN2CCc3ccccc3C2)cc1
  N370S GC mod = -5%
O=C(Nc1ccccc1)N1CCC(c2ccccc2)C1 (stereo not drawn)
  N370S GC mod = 4%
O=C(Nc1ccc2c(c1)OCCO2)c1cccnc1
  N370S GC mod = -5%
O=C(NCCS(=O)(=O)N1CCN(c2ccccc2)CC1)c1ccco1
  N370S GC mod = 1%
CC(C)CC(=O)Nc1cc(C(F)(F)F)ccc1N1CCOCC1
  N370S GC mod = 12%
COc1cc(C(=O)NCc2nnc(SCC(=O)N3CCCc4ccccc43)o2)cc(OC)c1OC
  N370S GC mod = -9%
O=C(COC(=O)c1cc[n+]([O-])cc1)Nc1ccc(F)c([N+](=O)[O-])c1
  N370S GC mod = 3%
COCc1cc(C)nc(SCC(=O)Nc2nc(C)cs2)c1C#N
  N370S GC mod = 13%
C=CCn1c(=O)c2ccccc2n2c(SCC(=O)NC(C)C)nnc12
  N370S GC mod = -9%
COc1cccc2cc(-c3nnc(SCC(=O)NCc4ccccc4)n3C)oc12
  N370S GC mod = 4%
O=C(NNc1ccccc1C(F)(F)F)c1cccs1
  N370S GC mod = 1%
CCOc1ccc(C(=O)Nc2nnc(SCC(=O)NCC3CCCO3)s2)cc1OCC (stereo not drawn)
  N370S GC mod = -2%
O=C(/C=C/c1ccc(F)cc1)NC(=S)NC1CCCCC1
  N370S GC mod = 14%
CC1=NC(C)(C)Cc2ccccc21
  N370S GC mod = 4%
CCc1ccc(NC(=O)CCC(=O)N2CCSc3ccccc32)cc1
  N370S GC mod = -7%
COc1cc(CNCCN(C)C)c(Br)cc1OC1CCCC1
  N370S GC mod = 5%

Part of the list above in order of formula weight, largest number first.
CC(=O)c1ccc(N2CCN(S(=O)(=O)c3ccc4c(c3)NC(=O)CC(=O)N4)CC2)cc1
  N370S GC mod = 3%
CCOc1ccc(CCNC(=O)CCN2C(=O)COc3ccccc32)cc1OCC
  N370S GC mod = 13%
COc1cc(CNCCN(C)C)c(Br)cc1OC1CCCC1
  N370S GC mod = 5%
O=C(NCCS(=O)(=O)N1CCN(c2ccccc2)CC1)c1ccco1
  N370S GC mod = 1%
O=C(/C=C/c1ccc(F)cc1)NC(=S)NC1CCCCC1
  N370S GC mod = 14%
O=C(NNc1ccccc1C(F)(F)F)c1cccs1
  N370S GC mod = 1%

Later entries:
COc1cccc(-c2nn(-c3ccc(F)cc3)cc2C(=O)NCC2CCCO2)c1 (stereo not drawn)
  N370S GC mod = -10%
O=C(Nc1cccc(F)c1)C1C2C=CC3(CN(CCCN4CCOCC4)C(=O)C13)O2 (stereo not drawn)
  N370S GC mod = 2%
CC[n+]1cccc(-c2nc3ccccc3s2)c1
  N370S GC mod = 7%
COc1ccc(-c2cc(C(F)F)n3ncc(C(=O)Nc4cc(C)on4)c3n2)cc1
  N370S GC mod = -13%
CC1CC(C)CN(CCCNC(=O)c2ccc(CNS(=O)(=O)c3ccc(F)cc3)cc2)C1 (stereo not drawn)
  N370S GC mod = -7%
O=C(CNC(=O)Cc1cccc2ccccc12)NCc1ccccc1F
  N370S GC mod = -6%
C#Cc1ccc(C(=O)Nc2cc(C(N)=O)ccc2N2CCOCC2)cc1
  N370S GC mod = -2%
O=C(CSc1ncn[nH]1)Nc1ccc(S(=O)(=O)Nc2ncccn2)cc1
  N370S GC mod = -10%
Cc1ccc(S(=O)(=O)N(C)C)cc1NC(=O)C1CCCCC1
  N370S GC mod = 11%
S=C(NC1CCCCC1)N1CCc2ccccc2C1
  N370S GC mod = 7%
O=C(CSc1nnc2ccc(-c3ccccn3)nn12)NCC1CCCO1 (stereo not drawn)
  N370S GC mod = -3%
CCOC(=O)c1c(N)sc2c1C1CCN2CC1
  N370S GC mod = -5%

From PubChem BioAssay
